TRPML1 ag = qHTS for Agonists of the Human Mucolipin Transient Receptor Potential 1 (TRPML1) | Mucolipin-1 (Homo sapiens), Q9GZU1 | 410,000 tested, 0.12% active | TRPML1-expressing cells, Ca2+ dye fluorescence, FDSS; host cell line not named in the record; reference of the full effect not given here | activation, % (concentration not given with the values); in the data active = activation above about 50%; inconclusive = about 30% to 50%; inactive = below about 30%; further: 0% is about no effect; the text of the record puts the active cut at 80%
Target sequence (Q9GZU1 whole entry, looked up): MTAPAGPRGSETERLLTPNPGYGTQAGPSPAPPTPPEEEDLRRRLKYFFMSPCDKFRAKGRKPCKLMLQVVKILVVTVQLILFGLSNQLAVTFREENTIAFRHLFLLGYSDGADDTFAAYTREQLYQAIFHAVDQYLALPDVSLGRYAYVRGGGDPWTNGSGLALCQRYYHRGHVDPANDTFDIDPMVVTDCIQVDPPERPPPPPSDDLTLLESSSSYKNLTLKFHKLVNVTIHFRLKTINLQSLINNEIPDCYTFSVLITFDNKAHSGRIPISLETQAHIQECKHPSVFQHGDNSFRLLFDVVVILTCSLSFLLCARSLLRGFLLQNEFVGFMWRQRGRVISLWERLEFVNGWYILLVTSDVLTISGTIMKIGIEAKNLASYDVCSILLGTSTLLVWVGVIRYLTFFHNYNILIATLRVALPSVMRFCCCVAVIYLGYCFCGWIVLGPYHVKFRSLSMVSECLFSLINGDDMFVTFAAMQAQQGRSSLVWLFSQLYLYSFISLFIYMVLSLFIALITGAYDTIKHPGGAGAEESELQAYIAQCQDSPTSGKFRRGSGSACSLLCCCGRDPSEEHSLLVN
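Tet-induced TRPML1-DL cells, 1,500 per well, cultured overnight, were loaded with a no-wash Ca2+ dye for 45–90 min. Calcium fluorescence was recorded on the FDSS for 110 s after compound addition, before the EC80 agonist (4 uM 54-4) was added.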
CtBP-E1A inh = qHTS Assay for Inhibitors of the CtBP/E1A Interaction | AlphaScreen GST-E1A/His-CtBP binding, 1536-well; stronger effect = lower value; control for the full effect not named in the record | CtBP / adenovirus E1A interaction (AlphaScreen) | AID 651724, 2012 | activity change, % (no concentration beside the values) | 340,000 tested, 0.49% active; in the data active means activity change below about -65%; inconclusive means about -30% to -65%; inactive means above about -30%; further: on the % scale 0 is the no-effect control and ±100 the full control effect; compound concentration not given in the record
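AlphaScreen with 125 nM GST-E1A and 125 nM His-CtBP (5X stocks) in Tris pH 8.0, 300 mM NaCl, BSA, Tween 20, TCEP. Compounds preincubated 2 h at 37 deg C, then glutathione donor/nickel acceptor beads added for 1 h at 37 deg C in dark.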
D2 agonist = Beta-Arrestin HTS for Positive Allosteric Modulators of the Human D2 Dopamine Receptor: Agonists | DiscoveRx PathHunter D2 beta-arrestin, luminescence, 90 min; 100% = 57 uM dopamine signal | D(2) dopamine receptor (Homo sapiens), P14416 | activation, % (test concentration not listed) | 360,000 tested, 0.084% active | AID 624465, 2012; in the data active = activation above about 40%; inconclusive = about 15% to 40%; inactive = below about 15%; further: compound concentration not given in the record; the text of the record calls up to 30% inactive
Target sequence (P14416 whole entry, looked up): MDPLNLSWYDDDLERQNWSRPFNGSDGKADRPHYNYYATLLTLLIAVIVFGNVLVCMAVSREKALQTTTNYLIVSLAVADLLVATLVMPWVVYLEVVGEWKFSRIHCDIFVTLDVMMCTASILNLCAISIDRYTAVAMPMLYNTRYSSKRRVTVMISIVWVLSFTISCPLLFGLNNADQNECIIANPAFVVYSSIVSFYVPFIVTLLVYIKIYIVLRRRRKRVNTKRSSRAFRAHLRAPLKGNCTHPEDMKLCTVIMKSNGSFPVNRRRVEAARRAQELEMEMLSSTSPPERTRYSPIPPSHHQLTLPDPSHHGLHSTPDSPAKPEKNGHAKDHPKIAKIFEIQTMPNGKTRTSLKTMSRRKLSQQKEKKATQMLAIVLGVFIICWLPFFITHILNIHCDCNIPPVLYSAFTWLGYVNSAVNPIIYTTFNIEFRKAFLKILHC
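DiscoveRx PathHunter D2 beta-arrestin cells (2,100/well) attached overnight, then compound-stimulated 90 min at 37 C in HBSS/10 mM HEPES/0.1% Tween-20 buffer; beta-galactosidase complementation read by luminescence after 1 h at ambient temperature. Dopamine 57 uM final (EC100) as control.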
Six1-Eya2 blk = qHTS Assay for Inhibitors of the Six1/Eya2 Interaction; activity change, % (no concentration beside the values); 360,000 tested, 0.56% active; AlphaScreen GST-Six1/His-Eya2 binding, biochemical; stronger effect = lower value; control for the full effect not named in the record; Homeobox protein SIX1 (Homo sapiens) + Protein phosphatase EYA2 (Homo sapiens), …; in the data active = activity change below about -65%; inconclusive = about -30% to -65%; inactive = above about -30%; further: on the % scale 0 is the no-effect control and ±100 the full control effect; compound concentration not given in the record
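GST-Six1 + His-Eya2 (5X stock: 250/500 nM); Tris pH 8.0, 300 mM NaCl, 0.05% BSA, 0.02% Tween 20; GSH donor/Ni acceptor beads; 1 h 37 °C dark; AlphaScreen readout.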
PINK1 expr mod = A Quantitative High throughput Screen to Identify Chemical Modulators of PINK1 Expression. PINK1 immunofluorescence, high-content cytometry, 24 h. Potency, µM (highest dose often 76.6 µM), for the others: top-dose activation (PINK1 increase), hits mostly activators. 410,000 tested, 0.2% active; active = well fitted activation curve with a large enough effect; inconclusive = small, poorly fitted or top-dose-only effect; inactive = flat fitted curve, though single readings scatter; cell line not stated here;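 further: potency means the concentration at half of the fitted maximal effect; % of control where 0% means no effect; nearly all actives have a fitted effect of over 65% in size; a mitochondrial uncoupler was the plate control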
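Readout is PINK1 immunofluorescence, quantified alongside mitochondrial, cell and nuclear markers by laser-scanning microplate cytometry. Cells from a stable line were exposed to compound titrations (5 concentrations) for 24 hours, with CCCP controls.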
TRPML1 blocker = qHTS for Inhibitors of the Human Mucolipin Transient Receptor Potential 1 (TRPML1). Mucolipin-1 (Homo sapiens), Q9GZU1. TRPML1-inducible cells, Ca2+ dye fluorescence, FDSS; stronger effect = lower value; inhibition of EC80 agonist-evoked calcium signal. activity change, negative = inhibition, % (no concentration beside the values). 390,000 tested, 0.02% active. AID 624415, 2012; in the data active means activity change below about -50%; inconclusive means about -30% to -50%; inactive means above about -30%;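 further: stimulus is agonist 54-4 at its EC80 concentration; on the % scale 0 is the no-effect control and ±100 the full control effect; compound concentration not given in the record; the text of the record puts the active cut at -80%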
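TRPML1-DL cells, Tet-induced overnight (~16 h, 37 °C) at 1,500 cells/well, were loaded with Ca8 no-wash dye plus quencher for 45-90 min at room temperature. Compounds were pinned during FDSS kinetic reading; agonist 54-4 at EC80 (4 uM final) then added.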
* hit, by the source's call; ? = inconclusive; / = not tested or not shown; & = joins results of further samples; [ ] = another dose, or the depositor's remark. Rows are unselected; any-hit rate near 1%.

SMILES	TRPML1 ag	CtBP-E1A inh	D2 agonist	Six1-Eya2 blk	PINK1 expr mod	TRPML1 blocker
COc1ccccc1C(=O)NCC(=O)OCC(=O)Nc1cccc(S(=O)(=O)N(C)C)c1	0.1	2.5	-1.1	6.9	5.6%	6.4
Cc1ccc(-c2ocnc2C(=O)Nc2ccccc2NC(=O)c2ccccn2)cc1	1.9	-2.0	-11.4	-5.4	-0.9%	-4.0
Cc1ccoc1C(=O)NCc1occc1C(=O)O	-0.1	3.9	-1.9	-14.2	3.5%	-13.6
CN(C)/C=C(\C#N)S(=O)(=O)c1ccc(Cl)cc1	-0.2	-0.4	-13.1	4.9	1.9%	-4.9
CCC(=C/c1sc2ccc3ccccc3c2[n+]1C)/C=C1\Sc2ccc3ccccc3c2N1C	-0.4	-13.2	-1.3	1.7	?	0.0
CCN(Cc1ccccc1)C(=O)CN1C(=O)COc2ccc(S(=O)(=O)N3CCOCC3)cc21	1.8	/	/	/	0.0%	-16.6
COc1cc(/C=C2/SC(=O)NC2=O)ccc1OC(=O)c1ccco1	1.3	1.2	-1.9	-10.8	2.3%	2.7
CC(C)(C)c1cc(C(=O)N2CCc3ccccc3C2)ccn1	1.8	4.0	5.7	3.6	0.0%	3.4
CC(C)=CCN1CCN(Cc2ccc(N3CCNC3=O)cc2)CC1CCO (stereo unspecified)	0.2	/	-3.2	-1.3	0.0%	15.1
Cc1cccc(NC(=O)c2c(NC(=O)C(F)(F)F)sc3c2CCCCC3)c1	-1.0	/	/	/	?	-5.2
Cc1ccc(NC(=O)CN2C(=O)NC(Cc3c[nH]c4ccccc34)C2=O)cc1 (stereo unspecified)	-1.1	/	-1.1	0.4	1.7%	0.4
COc1cc(C(=O)N/N=C\c2ccccc2)c([N+](=O)[O-])c(OC)c1OC	1.7	-13.4	-0.4	-2.7	-1.3%	10.4
CCOc1ccccc1NC(=O)Nc1cccc(S(N)(=O)=O)c1	0.3	-1.1	2.9	-11.6	1.0%	-3.2
CCOc1ccc(NC(=O)COC(=O)c2cccnc2)cc1	0.1	2.8	-2.9	2.9	-1.9%	-1.3
Cc1ccc(S(=O)(=O)N(CC2CO2)c2cc(Cl)ccc2Cl)cc1 (stereo unspecified)	0.2	2.7	-2.9	13.1	3.1%	5.9
CCN(CC)C(=O)c1ncn(C)c1C(=O)N(CC)CC	-0.7	1.8	-4.2	1.1	1.2%	21.3
CC(=O)N1N=C(c2ccccc2)OC1(C)CC(=O)Nc1ccccc1 (stereo unspecified)	-0.4	-9.0	-2.2	0.0	-1.4%	13.8
CCN(CC)CCCNC(=O)c1nn(C)c2c1CS(=O)(=O)c1ccccc1-2	-0.6	/	/	/	3.2%	-14.1
Cn1ncc2c(=O)[nH]cnc21	-0.5	3.9	-3.0	0.6	-0.9%	19.4
O=C(Nc1ccc(F)c(F)c1)c1ccc(-n2cncn2)c([N+](=O)[O-])c1	0.2	-16.5	13.6	1.5	-2.3%	-5.9
COc1ccc(-n2nc(C(=O)NCC(=O)NCC3COc4ccccc4O3)c3ccccc3c2=O)cc1 (stereo unspecified)	-0.2	0.2	-2.8	-7.1	0.7%	39.2
CCc1c(C(=O)Nc2ccc(OC)c(Cl)c2)[nH]c(C)c1C(C)=O	0.1	-7.1	-2.8	-12.1	47.1%[38.3 µM]	9.0
O=c1c2cnn(-c3ccccc3)c2nc(-c2cccs2)n1-c1cccc(Cl)c1	0.9	7.7	-8.8	5.2	4.6%	10.6
CCCNC(=O)NC(C(=O)OC)C12CC3CC(CC(C3)C1)C2 (stereo unspecified)	0.9	-0.5	2.0	13.9	-0.1%	-7.0
Cc1ccc(S(=O)(=O)N2CCCN(S(=O)(=O)c3ccc4ccccc4c3)CC2)cc1	1.3	10.0	2.4	3.1	0.2%[38.3 µM]	-8.3
OCC[C@@H]1C[C@H](O)[C@@H](O)[C@@]2(OCc3cc(Cl)ccc32)O1	-0.1	6.6	-3.0	9.6	-0.7%	-7.7
Cc1ccc(C)n1-c1nnc(N2CCCC(C(=O)NCc3cccc(F)c3)C2)s1 (stereo unspecified)	0.6	/	/	/	0.8%	7.3
COc1cc2c(cc1OC)CN(C(=O)c1ccc(Br)o1)CC2	1.4	-7.2	2.3	-12.9	-1.4%	23.5
COc1ccc(CC(NC(C)=O)C(=O)NC2CCN(S(=O)(=O)c3cccc4ccccc34)CC2)cc1OC (stereo unspecified)	-0.2	5.7	-2.4	-2.3	-4.5%[38.3 µM]	12.4
CCn1cc(C(=O)NC2CCCCCC2)c(=O)c2ccc(C)nc21	/	/	0.9	9.0	0.3%	/
CC(C)(COC(=O)Nc1ccccc1)COC(=O)Nc1ccccc1	3.4	-15.9	0.8	3.0	1.8%	4.3
COc1ccc(NC(=O)c2coc(C)c2)cc1	0.5	1.9	-1.5	-0.5	-0.1%	-8.8
O=C1CC(=O)OC(c2ccc([N+](=O)[O-])cc2)O1	11.2	0.0	-14.5	8.6	-0.4%	5.2
CCOC(=O)C1CCCN(C(=O)c2cccc(S(=O)(=O)N3CC(C)OC(C)C3)c2)C1 (stereo unspecified)	-0.1	2.3	-0.7	-0.6	0.0%	-24.2
CCC(C)(C)NC(=O)CN(C(=O)c1csnn1)c1cccc2c1CCCC2	1.5	-2.6	-18.8	4.1	-1.1%	18.6
Cc1cccc(N(C(=O)CNC(=O)c2ccco2)C(C(=O)NC2CCCC2)c2ccncc2)c1 (stereo unspecified)	-0.2	-0.5	-5.3	-6.4	-1.0%	-1.9
CCCOc1ccccc1N/C(=N/c1nc(C)cc(C)n1)NC(=O)Nc1ccc(Cl)cc1	-1.0	0.7	-4.3	0.3	0.8%	-6.7
COC(=O)c1ccccc1NC(=O)C1CCN(C(=O)N2CCOc3ccccc32)CC1	0.4	-4.8	0.4	-0.1	0.0%	-1.1
CC(C)(C)NC(=O)c1ccc(NC(=O)C2COc3ccccc3O2)cc1 (stereo unspecified)	-1.0	0.5	0.4	-3.8	-2.9%	-6.4
O=C(Nc1ccc(Br)cc1)c1ccco1	0.1	0.0	0.5	-6.3	?	-9.5
COc1cc(NS(=O)(=O)N2CCCC2)cc(OC)c1OC	-0.5	7.0	-2.6	-14.5	/	0.7
N#CCCN(C(=S)NC(=O)C1CCCCC1)c1ccccc1F	-0.6	6.7	-3.5	7.9	-0.4%	-4.6
O=C(Nc1ccc(-c2cnco2)cc1)c1ccccc1	2.4	-1.0	-0.7	5.8	4.9%	-5.2
CSc1ccccc1C(=O)NCC(c1ccco1)N(C)C (stereo unspecified)	-0.5	-1.4	1.1	1.2	-0.2%	12.7
CCC(C)N(C(=O)Cn1c(Cl)nc2c1c(=O)n(C)c(=O)n2C)C1CCS(=O)(=O)C1 (stereo unspecified)	0.1	-7.0	-0.6	2.2	0.7%	19.9
N#Cc1cc(C#N)c(SCC(=O)NCC2CCCO2)nc1N (stereo unspecified)	0.5	8.8	-2.7	6.1	-1.2%	26.8
O=C(CCc1nnc(-c2ccccc2)o1)c1ccc(Cl)cc1	-0.1	0.0	-2.5	-12.6	1.4%	-16.6
Cc1ccc(C)c(NC(=S)NNC(=O)c2sccc2C)c1	1.3	8.2	-3.9	-0.8	2.4%[38.3 µM]	-10.2
COc1ccc(CNC(=O)CN(c2ccc(OC)cc2)S(=O)(=O)c2c(C)[nH]c(=O)[nH]c2=O)cc1	-0.6&2.0	-2.6	-4.3	-4.7	-0.6%&1.7%	16.6&-2.7
COc1ccc(C)cc1NC(=O)NCCC1=CCCCC1	-0.7	-0.5	-3.1	0.3	-1.5%[38.3 µM]	-6.5

The listing continues:
SMILES	TRPML1 ag	CtBP-E1A inh	D2 agonist	Six1-Eya2 blk	PINK1 expr mod	TRPML1 blocker
Cc1noc(C)c1CSCC(=O)Nc1ccc(S(C)(=O)=O)cc1	-0.1	/	-3.3	3.6	-0.1%	1.6
Cc1ccc(NC(=S)Nc2ccc(OC(F)F)c(Cl)c2)cc1F	1.2	5.0	-2.5	-6.7	15.8µM*	27.2
CCN(CCN(C)C)C(=O)Cn1ncc2c([nH]c3ccc(C)cc32)c1=O	3.5	/	/	/	1.1%	-9.1
CC(=O)Nc1sc(C)c(C)c1C(=O)OCCOc1ccccc1	-0.4	14.5	-0.6	1.4	4.0%	3.0
Cc1c(C(=O)OC(C)C)sc(NC(=O)C2CCCO2)c1C(=O)OC(C)C (stereo unspecified)	1.0	11.5	2.3	3.6	6.3%[38.3 µM]	-1.4
O=C(OC(C(=O)NCc1ccccc1)c1ccccc1F)c1ccco1 (stereo unspecified)	-0.1	8.3	-1.5	0.6	-0.9%	0.8
CCC(=O)c1c(NC(C)C)cc(C)oc1=O	0.0	-11.1	-2.8	-6.0	-0.4%	-22.7
CC(Sc1nc2scc(-c3ccccc3)c2c(=O)[nH]1)C(=O)NC(N)=O (stereo unspecified)	0.2	-1.0	-0.8	-3.3	3.7%	-1.9
COC(=O)c1ccc(CN2CCC(CO)(Cc3ccc(OC)cc3)CC2)cc1	0.6	-1.8	-3.8	2.4	-0.2%	-6.1
CCS(=O)(=O)N1N=C(c2ccc(NS(C)(=O)=O)cc2)CC1c1ccccc1 (stereo unspecified)	0.4	-1.1	-0.7	-10.4	?	10.4
CC1=[N+](C)c2c(ccc3cccnc23)C1(C)C	3.5	0.0	?	?	12.6µM*	-8.5
CCNc1nc(Oc2ccccc2)nc(OC(C)C(=O)OCC)n1 (stereo unspecified)	1.4	2.2	2.0	12.8	-0.7%	-9.2
CC(C)(C)c1ccc(OCCCC(=O)Nc2ccc(S(N)(=O)=O)cc2)cc1	-0.5	0.7	-0.5	1.9	5.8%	10.9
CCOC(=O)C1(C)CCCN1C(=O)c1cccc2ccccc12 (stereo unspecified)	0.0	-0.9	-5.1	0.5	0.4%	-5.7
CCN(CC(=O)Nc1cc(Cl)ccc1C)C(=O)Cc1ccsc1	-0.4	/	4.6	0.7	0.6%	-2.0
Cc1cc(C)c(-n2nnnc2SCC(=O)c2cc3ccccc3o2)c(C)c1	0.4	-28.2	0.5	-6.7	11.0%	16.7
COC(c1ccccc1)c1nnc(CCC(=O)NCc2ccc3ncccc3c2)o1 (stereo unspecified)	-0.6	7.7	-4.1	3.4	-0.6%	-10.1

High-throughput results (PubChem)
